High-throughput results deposited in PubChem BioAssay by several laboratories.
CSC inhib – cancer stem cell inhibition | AID 2717 | cancer stem cell-like cells viability, luminescence | inhibition, % at 7.5 µM | actives 1.1% (n = 300,000);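 active means mean at 75% or more and at least half the replicates too; tested in HMLE shEcad cells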;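 further: 0% = median of negative and 100% = median of positive control wells; the first replicate is given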
UUG fidelity – modulators of start codon recognition fidelity in yeast. S. cerevisiae UUG-firefly luciferase reporter, luminescence/redox ratio. activity score, % at 18.7 µM. actives 0.13% (n = 350,000). AID 602363;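 active means replicate mean at a twofold rise or more, about +100% in these data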;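 further: firefly luciferase made from a UUG start codon reports start codon fidelity; reporter light over untreated wells divided by growth signal over untreated wells; some hits fall short of that in this replicate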
eIF4H inh – inhibitors of RNA binding by human eIF4H; inhibition, % at 35 µM; eIF4H fluorescence polarization binding assay; Q15056; actives 0.94% (n = 290,000); AID 2012;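 active means 50% or more with normal probe brightness, or confirmed in later tests; about a fifth of its hits are not listed in these tables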;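 further: calls also rest on retests at 20 µM and on dose response follow-up; 0% = protein and probe with vehicle and 100% = probe without protein; strong numbers were not always called active; many hits fall short of the cut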
MT1-MMP act inh – inhibitors of human MT1-MMP activation | HT1080 RFP-PRO-GFP cells, GFP/RFP ratio fluorescence, overnight; percent of plate control window, DMSO zero | GFP/RFP ratio change, % at 20 µM | actives 0.061% (n = 360,000) | AID 651647;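 active means GFP/RFP ratio change of at least 30% with cell ATP level not reduced by more than half and red fluorescence within 50% of control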; further: strong numbers were not always called active
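Material – HT1080 RFP-PRO-GFP cells · Control set – DMSO wells and RFP-L50D-GFP cells · Incubation – overnight cell settling, then overnight compound exposure, 37 °C, 5% CO2 · Compound dosing – single-point 20 µM compound, 1% DMSO · Read-out – GFP/RFP fluorescence ratio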
Rce1 inh – yeast Ras-converting enzyme inhibition; Q03530; yeast membranes, quenched prenylated peptide cleavage fluorescence; calls only; actives 0.27% (n = 290,000); AID 2563;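 active means fall in fluorescence gain of 50% or more versus controls, with final raw signal at or below 3038400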;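 further: plate controls were neutral control wells for no effect and wells lacking membranes for full effect; tested at 10 µM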
Target sequence (Q03530 whole entry, looked up): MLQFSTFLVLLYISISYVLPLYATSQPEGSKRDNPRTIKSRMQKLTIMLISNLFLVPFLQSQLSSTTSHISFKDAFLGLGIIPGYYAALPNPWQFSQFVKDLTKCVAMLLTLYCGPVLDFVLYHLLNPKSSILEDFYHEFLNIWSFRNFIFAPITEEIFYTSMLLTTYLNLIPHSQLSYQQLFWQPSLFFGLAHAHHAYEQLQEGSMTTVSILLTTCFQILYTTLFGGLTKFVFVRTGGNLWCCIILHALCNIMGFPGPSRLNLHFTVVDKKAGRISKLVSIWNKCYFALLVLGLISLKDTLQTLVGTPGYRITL
PABP polyA inh – PABP-poly(A) binding inhibition | actives 1% (n = 290,000) | AID 2014 | inhibition, % at 35 µM | P11940 | PABP-poly(A) RNA binding, fluorescence polarization;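 active means 50% or more with normal probe brightness, or confirmed in later tests; about a fifth of its hits are not listed in these tables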;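 further: calls also rest on retests at 20 µM and on dose response follow-up; controls were probe without protein and protein plus probe with vehicle; some compounds called inactive have numbers as strong as hits; many hits fall short of the cut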
Target sequence (P11940 whole entry, looked up): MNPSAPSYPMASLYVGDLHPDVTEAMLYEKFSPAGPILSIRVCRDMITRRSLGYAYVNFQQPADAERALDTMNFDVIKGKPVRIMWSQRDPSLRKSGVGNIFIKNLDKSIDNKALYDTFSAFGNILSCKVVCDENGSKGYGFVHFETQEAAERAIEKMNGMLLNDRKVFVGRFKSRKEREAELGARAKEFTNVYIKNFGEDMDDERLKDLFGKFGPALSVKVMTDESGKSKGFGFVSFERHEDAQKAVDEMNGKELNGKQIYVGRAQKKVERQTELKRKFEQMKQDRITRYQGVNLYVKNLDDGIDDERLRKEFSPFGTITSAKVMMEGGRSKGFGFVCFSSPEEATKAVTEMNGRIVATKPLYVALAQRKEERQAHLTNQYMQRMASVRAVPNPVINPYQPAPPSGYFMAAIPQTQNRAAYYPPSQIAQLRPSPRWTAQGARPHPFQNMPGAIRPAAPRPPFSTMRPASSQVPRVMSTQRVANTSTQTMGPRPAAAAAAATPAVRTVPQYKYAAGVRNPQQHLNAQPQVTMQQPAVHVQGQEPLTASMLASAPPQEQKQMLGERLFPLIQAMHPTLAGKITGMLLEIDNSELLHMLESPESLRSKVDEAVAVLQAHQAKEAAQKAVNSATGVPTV
HIV Env fusion – blocks HIV Env-driven cell-cell fusion | actives 1.1% (n = 360,000) | inhibition, % at 12.3 µM | AID 651610 | HeLa-JRFL Env/CEM21 cell fusion, luciferase;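 active means mean replicate inhibition score of at least 50 and every replicate individually at or above 50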;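 further: 0% = plate neutral controls and 100% = maraviroc near 300 nM; one replicate is shown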
MT1-MMP act inh RFP – further read-out of MT1-MMP act inh, marked with its call; RFP signal change, %; measured here: RFP expression control read;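 0 = vehicle wells; hits needed this value within 50% of zero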
* hit, by the source's call; i = inactive; . = no result given.

compound	CSC inhib	Rce1 inh	eIF4H inh	PABP polyA inh	MT1-MMP act inh RFP	UUG fidelity	MT1-MMP act inh	HIV Env fusion
Cc1nc2sc(-c3ccccc3)nn2c(=O)c1Br	0.7	i	-4.9	-6.9	3.3	-5.6	0.4	-39.9
CC(=O)Nc1cccc(Oc2ccc([N+](=O)[O-])cc2Cl)c1	12.9	i	1.6	-6.1	.	.	.	-26.7
CC(C)CN=c1cc(-c2ccccc2)oc2ccc(Cl)cc12	16.2	.	-7.2	1.5	1.3	.	2.5	.
CC1CCN(S(=O)(=O)c2ccc(Oc3ccc([N+](=O)[O-])cc3)cc2)CC1	-8.4	i	-9.6	-6.9	-21.5	.	-6.8	72.4*
O=C(Cn1cnc2ccccc2c1=O)N1CCOCC1	-4.5	i	-1.4	-1.7	6.1	.	-0.6	.
COc1cccc(Nc2nc(N)nc(CCl)n2)c1	-0.5	i	3.5	-3.8	-2.8	-30.2	-2.8	9.0
CCCn1c(SCC(=O)Nc2nccs2)nnc1-c1cccnc1	12.9	i	1.6	6.3	2.1	-9.2	3.8	-17.3
Cn1ccnc1SCC(=O)Nc1sccc1C#N	-2.4	i	17.5	4.1	0.5	-24.1	-5.1	.
O=C(NC1CCS(=O)(=O)C1)c1ccc(-c2ccc(Br)cc2)o1 (stereo unspecified)	0.5	i	-7.7	-0.8	-6.0	-11.2	4.3	.
O=C(C[n+]1cc(-c2ccccc2)n2c1CCCCC2)c1ccc(Br)cc1	-2.3	i	-7.1	-15.6	-12.8	.	-5.0	-5.8
Cc1c(Cc2ccccc2)c(NCCCO)n2c(nc3ccccc32)c1C#N	-23.4	i	-13.0	-3.8	-8.9	-15.4	9.3	20.0
CSc1ccccc1C(=O)Nc1nc2ccccc2c(=O)[nH]1	0.1	i	-17.7	2.3	-3.9	.	0.9	-18.8
CCCc1c(C(=O)O)cnn1-c1ccc(Cl)cc1	-2.7	i	2.5	-8.9	-0.4	.	-2.6	-4.6
Cc1cc(NC(=O)CN2CCCCCCC2)no1	-11.1	i	-7.2	19.4	-0.1	.	0.9	.
CC1(c2nnc(Cc3ccccc3)o2)CC(c2cccc([N+](=O)[O-])c2)=NO1 (stereo unspecified)	-2.5	i	.	.	4.3	-1.7	3.8	-5.2
C#CCOCCOCCOCCNc1nc(N2CCN(C(=O)[C@H]([C@@H](C)O)n3cc(CCCCN)nn3)CC2)nc(N2CCN(C(=O)[C@H](CCCCN)n3cc(CCC(=O)O)nn3)CC2)n1	-8.4	.	.	.	4.6	10.0	8.0	10.5
Cc1ccc(CNS(=O)(=O)NCc2ccccc2F)cc1	2.1	i	23.3	3.3	3.3	-18.1	-0.8	-6.6
O=C(OCC(=O)N1CCCC1=O)C1CCN(S(=O)(=O)c2c(Cl)cccc2Cl)CC1	3.1	i	3.8	2.8	0.9	10.9	2.0	.
Nc1sc2c([n+]1CCCS(=O)(=O)[O-])CCCC2	13.9	i	-0.1	-1.2	0.9	.	-2.5	-2.2
CN(Cc1ccccc1)C1CC(=O)N(c2ccc(C(=O)O)cc2)C1=O (stereo unspecified)	5.2	i	-11.3	11.8	5.4	-14.8	1.2	-74.7

Later entries
compound	CSC inhib	Rce1 inh	eIF4H inh	PABP polyA inh	MT1-MMP act inh RFP	UUG fidelity	MT1-MMP act inh	HIV Env fusion
Cc1ccccc1S(=O)(=O)Cc1ccc(C(=O)NCCCN2CCCC(C)C2)o1 (stereo unspecified)	2.1	i	-10.0	-1.7	3.3	-5.9	-0.7	7.5
CCCCOc1ccccc1C(=O)NCCCCCC(=O)O	.	i	-7.6	-2.1	-2.4	9.1	-1.9	.
COc1ccc(C2NC(=O)N(C)C(C)=C2[N+](=O)[O-])cc1 (stereo unspecified)	-11.6	i	-2.2	5.8	1.9	-21.9	2.6	3.7
O=C(CN(C(=O)CCC(=O)Nc1nccs1)c1cccc(F)c1)NCC1CCCO1 (stereo unspecified)	-11.2	i	0.1	-9.2	1.4	-0.4	-2.8	.
COc1ccc(C2C(C(=O)C(C)(C)C)=C(O)C(=O)N2Cc2ccccc2)cc1 (stereo unspecified)	-2.2	i	-8.9	0.8	2.0	-5.4	-1.7	10.7
O=[N+]([O-])c1ccc(Cl)c(S(=O)(=O)NCC2CCCO2)c1 (stereo unspecified)	-2.8	i	-3.0	5.4	-0.5	-14.8	0.9	-73.4
O=C(Nc1ccc(Cl)cc1)OCc1ccccn1	10.5	i	-10.0	-3.4	-5.0	-17.1	2.8	-109.3
COCC(=O)Nc1ccc(N2CCN(c3ccccc3)CC2)c(F)c1	9.4	i	-11.1	12.5	-1.0	-12.9	6.0	4.1
CC(=O)N1c2ccc(S(=O)(=O)NCCC(=O)Nc3ccc(C)cn3)cc2CC1C (stereo unspecified)	0.5	i	-2.0	7.8	1.1	-32.0	0.9	-4.9
CC(NC(=O)Cn1c(=O)oc2cc(S(=O)(=O)N3CCCC3)ccc21)c1ccccc1 (stereo unspecified)	.	i	-7.2	1.2	-5.2	-10.7	-0.8	6.9
Cc1cc(C(F)(F)F)nn1CC(=O)Nc1ccc2c(c1)OCO2	-5.7	.	-10.9	-4.6	0.3	-17.7	-0.3	11.0
CC(Sc1nnc(Cc2ccccc2)o1)C(=O)NC1(C#N)CCCCC1 (stereo unspecified)	-8.9	.	.	.	2.6	0.9	1.9	4.3
COc1ccc(C(=O)Nc2cnc3sc(C)nn3c2=O)cc1	-13.8	i	-1.8	-6.6	4.6	-8.9	2.2	18.4
CCOc1ccccc1C(=O)Nc1ccc(S(=O)(=O)Nc2cc(OC)nc(OC)n2)cc1	-11.6	i	-4.5	1.3	5.9	-10.7	1.2	-0.3
COc1cc(C(=O)Nc2cccc(C)c2C)ccc1OCC(=O)N1CCOCC1	.	.	.	.	0.7	-12.0	1.5	1.0
CC(C)(C)OC(=O)N1CCCN(C(=O)Nc2ccccc2)CC1	2.7	i	-3.1	-13.8	0.9	-11.0	1.4	5.6
Cc1ccc(CNC(=O)COC(=O)c2nc(-c3ccccc3)oc2C)cc1	.	.	.	.	4.5	-8.4	3.4	-12.0
Cc1ccc(C(=O)n2nc(C#N)c(C#N)c2N)cc1	-4.4	i	-0.5	2.2	9.2	.	2.3	7.3
COc1ccc(C(=O)NCCc2nnc3ccc(SCC(=O)NCc4ccc(F)cc4)nn23)cc1	-24.9	i	2.3	9.2	.	-6.3	.	.
CCN1C(=S)N[C@@H](CCc2ccccc2)C(C(=O)OC)=C1C	6.2	i	2.7	3.8	-9.2	-16.7	-3.1	22.1

Two records picked at random from those above, as already listed:
compound	CSC inhib	Rce1 inh	eIF4H inh	PABP polyA inh	MT1-MMP act inh RFP	UUG fidelity	MT1-MMP act inh	HIV Env fusion
COc1ccc(C(=O)Nc2cnc3sc(C)nn3c2=O)cc1	-13.8	i	-1.8	-6.6	4.6	-8.9	2.2	18.4
COc1ccc(C2NC(=O)N(C)C(C)=C2[N+](=O)[O-])cc1 (stereo unspecified)	-11.6	i	-2.2	5.8	1.9	-21.9	2.6	3.7

Later entries.
compound	CSC inhib	Rce1 inh	eIF4H inh	PABP polyA inh	MT1-MMP act inh RFP	UUG fidelity	MT1-MMP act inh	HIV Env fusion
CCC1(c2ccccc2)NC(=O)N(CC(=O)NCc2ccc(OC)cc2)C1=O (stereo unspecified)	5.8	i	-0.8	-4.2	0.8	0.2	1.0	5.1
COc1cccc(NC(=O)CN(C)C(=O)CNC(=O)c2ccc(C)s2)c1	.	.	.	.	-2.0	9.0	-0.9	1.3
C=CCN(c1nc(C)cc(OC)n1)S(=O)(=O)c1ccc(C)cc1	-2.3	i	-4.0	1.1	-5.9	11.5	-3.4	8.4
NS(=O)(=O)c1ccc(CCNC(=O)CSc2nc3ccsc3c(=O)n2CC(=O)O)cc1	-11.8	i	0.1	-20.9	3.8	.	1.9	-1.8
CCOC(=O)C1(CCOc2ccccc2)CCN(Cc2ccc(CO)o2)CC1	17.4	i	-2.6	-8.8	1.5	.	-1.7	-0.8
O=C(NCCCN=C1NS(=O)(=O)c2ccccc21)c1ccco1	-3.4	i	4.9	-13.7	0.9	-28.6	6.5	.
COC(=O)C(CC(=O)c1cccc(OC)c1)c1ccc(F)cc1 (stereo unspecified)	.	i	6.5	-4.1	-2.1	.	-1.0	12.8
Cc1ccc(NC(=O)c2ccc(N3CCCC3=O)cc2)cc1S(=O)(=O)N1CCCCC1	2.0	.	.	.	-6.3	-16.6	7.3	4.5
c1ccc(Cn2c(SCc3cn4cccnc4n3)nnc2-c2ccco2)cc1	-18.1	i	0.7	-4.5	2.4	-20.6	0.2	.
CCOC(=O)C1Nc2ccc(C(F)(F)F)cc2C2c3ccccc3CC12 (stereo unspecified)	20.2	i	.	.	3.0	-8.4	1.6	23.4
O=C(NCc1ccccc1)c1cccc(NC(=O)C2CCCC2)c1	.	.	.	.	0.6	-28.7	4.9	-2.4
NC(=O)N/N=C/c1c(O)ccc2oc3c(c12)CCCC3	12.5	i	-2.8	17.7	-16.1	.	-6.7	24.2
Cc1cc(C(=O)N/N=C/c2cc(Br)ccc2OC(=O)c2ccc(Br)cc2)n[nH]1	-21.9	i	-11.6	-21.5	.	.	.	.
COc1ccccc1/C=N/Nc1nncc2ccccc12	0.4	i	-10.0	-12.5	5.2	.	1.8	-13.5
Cc1ccc(S(=O)(=O)Oc2ccc(/C=N/NC(=O)c3nn(C)cc3Cl)cc2)cc1	-14.0	i	-3.2	-9.4	-1.2	9.9	2.8	3.7
Cc1ccc(S(C)(=O)=NC(=O)NC(=O)c2c(F)cccc2Cl)cc1 (stereo unspecified)	-1.1	i	-4.3	-4.9	1.7	.	1.1	6.2
CCOC(=O)C1CCN(S(=O)(=O)C(F)(F)c2nc3ccccc3s2)CC1	-0.4	i	8.8	3.0	-1.6	-3.5	2.6	5.5
Cc1ccc(Nc2nc(/N=C/NO)n[nH]2)cc1C	-9.5	i	0.1	-1.6	0.3	7.6	-4.4	-2.5
O=C(CCSCCc1ccccn1)Nc1c(F)c(F)c(F)c(F)c1F	-1.8	i	-0.7	-4.1	2.3	.	-1.1	-5.4
CCOC(=O)Cn1cnc2c(C#N)c3n(c2c1=O)CCCCC3	-8.8	i	2.5	-3.2	6.5	-12.0	-1.0	.

(continued)
compound	CSC inhib	Rce1 inh	eIF4H inh	PABP polyA inh	MT1-MMP act inh RFP	UUG fidelity	MT1-MMP act inh	HIV Env fusion
CCOC(=O)C1CCN(C(=O)CN(Cc2ccccc2)S(C)(=O)=O)CC1	-11.3	i	-0.3	-18.7	-1.7	-7.9	0.5	-58.2
COc1ccc(CCNC(=O)CCCc2nnc3n(C)c(=O)c4sccc4n23)cc1OC	-0.3	i	-4.2	-7.1	5.5	18.9	3.7	-8.4
O=C(NCCC1=CCCCC1)c1ccc(Cl)c(S(=O)(=O)N2CCCCC2)c1	23.9	i	-0.4	4.5	-29.0	4.9	21.8	39.8
O=C1[C@H](Cc2ccccc2)NCC=CC[C@H](c2ccc(Cl)cc2)N1Cc1ccc(Cl)cc1	.	.	.	.	-12.6	-26.8	-8.9	110.3*
